Bioassay records: PubChem BioAssay, several laboratories
PKD1 inh = inhibitors of human PKD1 kinase, biochemical, fluorescence polarization. 200,000 tested, 0.056% active. inhibition, %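 (about 10 µM by stock and volumes)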. AID 797, 2007. PKD1 kinase fluorescence polarization assay;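 active means inhibition of 50% or more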;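 further: controls were vehicle for no effect and a reference inhibitor for full effect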
GALR2 agonist = GALR2 receptor agonists, primary screen, cell-based. Galanin receptor type 2 (Homo sapiens), O43603. GALR2-expressing cells, agonist activation read-out. 140,000 tested, 0.48% active. activation, %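 (tested at 5 µM)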. AID 803, 2007;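 active means above mean plus 3 SD of all compounds, about 5% in these data, not always enough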;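 further: 0% = vehicle buffer wells and 100% = reference agonist at full effect; tested in CHO reporter cells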
Target sequence (O43603 whole entry, looked up): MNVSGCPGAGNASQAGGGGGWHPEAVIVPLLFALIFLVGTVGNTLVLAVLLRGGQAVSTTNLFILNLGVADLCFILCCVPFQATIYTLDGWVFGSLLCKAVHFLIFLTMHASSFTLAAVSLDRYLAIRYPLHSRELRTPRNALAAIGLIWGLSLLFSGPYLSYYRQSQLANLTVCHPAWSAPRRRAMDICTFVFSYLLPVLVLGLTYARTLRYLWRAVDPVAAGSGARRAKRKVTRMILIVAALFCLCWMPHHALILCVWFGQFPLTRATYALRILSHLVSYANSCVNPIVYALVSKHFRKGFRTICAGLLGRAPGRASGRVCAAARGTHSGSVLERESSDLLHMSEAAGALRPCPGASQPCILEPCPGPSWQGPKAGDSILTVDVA
HSV augment = enhancers of HSV replication in host cells, fold increase, host cell viability; HSV replication augmentation in cells; maximum fold increase; 220,000 tested, 0.005% active;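 active means peak rise of 1.5-fold or more in the series; tested in PC3 cells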;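 further: first round at 10 µM; read as green reporter fluorescence; hits show the peak of a series up to 25 µM; 1 = signal of infected wells without compound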
RGS16-Gao = modulators of RGS16 binding to Galphao, primary screen, biochemical, human proteins, multiplexed bead flow cytometry; Regulator of G-protein signaling 16 (Homo sapiens) + Guanine nucleotide-binding protein …; bead-based flow cytometry RGS16-Galphao binding, fluorescence; actives lie on both sides; binding response (% of control), % at 10 µM; 220,000 tested, 0.38% active;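 active means below 25% or above 175%, edge rows of some plates excepted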;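 further: Galphao activated by GDP with aluminum fluoride before binding; 100% = wells without compound and 0% = beads without RGS; some results beyond the cut were filed as inactive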
Target sequence (O15492 whole entry, looked up): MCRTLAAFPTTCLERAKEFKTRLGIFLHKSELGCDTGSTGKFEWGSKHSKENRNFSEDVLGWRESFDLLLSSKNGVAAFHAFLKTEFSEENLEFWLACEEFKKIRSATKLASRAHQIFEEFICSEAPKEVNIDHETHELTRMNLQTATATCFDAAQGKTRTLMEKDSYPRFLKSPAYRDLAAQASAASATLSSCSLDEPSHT
Target sequence (P09471 whole entry, looked up): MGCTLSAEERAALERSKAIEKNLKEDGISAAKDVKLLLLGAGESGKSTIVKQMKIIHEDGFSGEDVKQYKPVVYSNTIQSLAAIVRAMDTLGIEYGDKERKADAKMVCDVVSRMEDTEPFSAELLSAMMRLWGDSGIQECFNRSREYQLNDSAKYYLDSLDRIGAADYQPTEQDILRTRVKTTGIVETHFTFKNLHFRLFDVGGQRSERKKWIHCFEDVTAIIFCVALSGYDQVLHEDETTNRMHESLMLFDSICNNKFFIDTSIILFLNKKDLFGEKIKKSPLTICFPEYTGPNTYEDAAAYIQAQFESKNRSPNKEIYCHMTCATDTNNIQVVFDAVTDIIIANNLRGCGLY
INS promoter inh = inhibitors of insulin promoter-driven GFP, primary screen, imaging, TRM-6 cells (human fetal islet line), eGFP reporter, cell count. reporter expression induced with tamoxifen. 130,000 tested, 0.9% active. inhibition, % at 2 µM;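 active means inhibition above the mean plus 3 SD, with well images judged a real hit on visual review, cut at about 60% in these data, passing the limit was not always enough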
INS promoter inh cell count = also measured in INS promoter inh; calls as there; normalized cell count, %; measured here: cell count, toxicity; reference of the scale not given here;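 cells exposed to compound for 48 h; stained nuclei by imaging scaled within each plate; lower means fewer cells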
HSV augment primary fold = recorded beside HSV augment, whose call it bears; fold increase; compound at 10 µM; measured here: primary screen fold increase 10 uM; tested in PC3 cells;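 GFP signal in the first replicate; 1 = infected wells without compound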
Active calls of the source: *; i = inactive; . = not tested or not shown. The order is random. About 1.1% of those tested had a hit in this group.

SMILES	PKD1 inh	GALR2 agonist	HSV augment	HSV augment primary fold	RGS16-Gao	INS promoter inh	INS promoter inh cell count
CC(=O)Nc1ccc(C(=O)Nc2nc(-c3ccccn3)cs2)cc1	1	.	i	1	95	.	.
Cc1cccc(NC(=O)CSc2nnc(CN3CCOCC3)n2C)c1C	2	.	i	1.1	102	26	71
O=c1cc(-c2ccccc2)nc2n1Cc1ccccc1-2	-2	-0.8	i	0.84	106	-41	55
Cn1c(=S)n(C)c2ccccc21	-8	.	i	1	103	42	159
C=C(C)C1CC=C(C)/C(=N/NC(=O)C2CC2c2ccccc2)C1 (centres undefined)	0	.	i	0.93	104	7	104
Cc1cc(C)c2c(CN3CCN(C)CC3)cc(=O)oc2c1	-6	-1.4	i	0.76	93	-21	134
Cc1[nH]n(-c2ccccc2)c(=S)c1C=Nc1cccc([N+](=O)[O-])c1	0	-1.1	i	1	19*	.	.
O=C(c1cccc([N+](=O)[O-])c1)N1CCN(c2cccc(Cl)c2)CC1	-7	-0.6	i	0.68	107	-30	100
Cc1ccc(CNS(=O)(=O)/C=C/c2ccc3c(c2)OCO3)cc1	4	-2.6	i	0.81	107	.	.
COc1cccc(/C=C/C(=O)c2ccc(NC3=NCCCS3)cc2)c1	-4	.	i	0.71	106	0	85
COc1ccc(F)cc1CN1CCN(c2cc(C)nc3c4c(C)cc(C)nc4nn23)CC1	6	0.9	i	0.91	109	.	.
CCN(CC)C(=O)COc1ccc2c(c1)C(=O)CC(C)(C)O2	-3	.	i	0.99	103	.	.
N#Cc1c(-n2cccc2C=O)sc2c1CCCC2	-5	.	i	1.1	102	.	.
C=CCc1cccc(/C=N/NC(=O)C(C)Nc2cccc(C)c2)c1O (centres undefined)	-5	.	i	0.97	101	43	89
COc1ccccc1NC(=O)c1c(Br)cnn1C	-1	.	i	0.81	101	.	.
O=C(CCc1nnc(CCc2c[nH]c3ccccc23)o1)NC1CCC1	.	.	i	0.86	102	.	.
N/C(=N\OC(=O)Nc1ccc(Cl)cc1)c1ncc(C(F)(F)F)cc1Cl	0	-4.3	i	0.86	114	-22	117
COc1ccc(NC(=O)CN(C)CC(=O)Nc2ccc3c(c2)CCC3)cc1	0	.	i	1.1	108	14	73
CCOC(=O)C1CCN(C(=O)Cc2c(C(=O)O)[nH]c3ccccc23)CC1	-3	-2.0	i	0.75	100	.	.
O=C(CSc1ncnc2scc(-c3ccccc3)c12)NCc1ccc2c(c1)OCO2	3	-1.3	i	0.97	106	0	109
Fc1ccccc1CNCCC(Cc1ccccc1)c1ccc2c(c1)OCO2 (centres undefined)	-12	0.0	i	0.95	105	-62	65
Cc1noc(N)c1C(=O)Nc1ccc(C(C)(C)C)cc1	-4	0.6	i	0.85	96	-14	82
O=C(CCc1nc(-c2ccccc2)no1)NCc1ccco1	-7	-0.6	i	0.88	87	.	.
COc1ccc(N(C(=O)COc2ccc(F)cc2)S(=O)(=O)c2ccc(C)cc2)cc1	-7	-0.9	i	1.1	103	-25	60
O=C(NCCN1CCc2ccccc2C1)C1CCN(S(=O)(=O)N2CCCCC2)CC1	-5	-1.1	i	0.97	114	.	.
CCOCCCNC(=O)C1CCN(C(=O)Nc2ccc(Cl)cc2)CC1	4	-2.3	i	0.92	95	20	89
O=C(CN(C(=O)CNC(=O)c1ccco1)c1ccc2c(c1)OCCO2)NC1CCCCC1	-3	.	i	1	105	.	.
CCCCC12CN3CCN(CC(C3)/C1=N\NC(=O)Nc1ccccc1)C2	-1	-1.4	i	0.9	97	7	73
CCOC(=O)N1CCC(NC(=O)CSCc2nc(-c3cccc(OC)c3)oc2C)CC1	3	1.0	i	0.69	109	-28	165
Cc1cc(C)n(C(=O)CNc2ccc(C)c(C)c2)n1	-1	-1.7	i	0.87	91	-161	119
O=C(O)Cn1c(=S)sc2ccccc21	-1	.	i	1	112	.	.
O=C(NC1CCCCC1)NC1CCN(C(=S)NCc2ccco2)CC1	2	0.0	i	0.76	96	19	128
O=C(C1=NN[C@@H]2C(=O)N(c3ccccc3C(F)(F)F)C(=O)[C@H]12)c1ccc2ccccc2n1	-1	-1.9	i	1.3	97	.	.
COc1ccccc1-n1cccc1C=O	-5	.	i	0.98	110	60	99
COc1ccccc1/C=C1/C(=O)N(c2cc(C)cc(C)c2)C(c2cccc([N+](=O)[O-])c2)S1(=O)=O (centres undefined)	4	-1.5	i	1	93	22	139
CC(C)S(=O)(=O)C1=NSC2=NC(=O)/C(=C\c3ccc(-c4ccccc4)o3)C(=N)N21	5	-0.1	i	1.3	100	-31	103
O=C(Nc1ccc(C(=O)Oc2ccccc2)c(O)c1)c1ccccc1	-3	.	.	.	99	0	91
COc1ccccc1Nc1nc(NCCO)nc(N)c1[N+](=O)[O-]	.	.	i	0.78	104	.	.
O=C(Nc1ccc(OC(=O)c2cccnc2)cc1)c1cccnc1	-18	-1.9	i	0.72	102	27	60
O=C(NCCCCCCCCCNC(=O)C(F)(F)F)C(F)(F)F	-2	-4.2	i	1.1	101	-22	77
COc1ccc(N(C)C(=O)Nc2ccc3nsnc3c2)cc1	-2	.	i	0.94	93	.	.
CCn1c(SCc2ccc(F)cc2)nc2c(c1=O)SCC2	6	.	i	0.96	125	-100	51
O=C(CCSCCC(=O)Nc1c(F)c(F)c(F)c(F)c1F)Nc1c(F)c(F)c(F)c(F)c1F	-1	.	i	1	102	-50	79
CCCc1cc(C(=O)Nc2ccc(C)cc2)no1	-10	-1.2	i	0.96	99	.	.
Cc1ccc(Cl)cc1NC(=O)COC(=O)Cn1cnc2c1c(=O)n(C)c(=O)n2C	1	.	i	1.1	95	.	.
CCOC(=O)C1=NN(c2ccc(C)cc2)CC1C(=O)OC (centres undefined)	-13	-1.2	i	0.87	108	.	.
CC1(C)CC(=O)C(/C=N/c2ccccn2)=C(O)C1	-5	-2.3	i	0.86	100	.	.
O=C(CNC(=O)c1ccc(Cl)cc1)OCC(=O)N1CCCC1	-5	.	i	1	98	.	.
Cc1c(Nc2c3ccccc3nc3ccccc23)c(=O)n(-c2ccccc2)n1C	.	.	i	0.89	82	.	.
Cn1c(N)c(C(=O)Nc2c(Cl)cccc2Cl)sc1=S	.	.	i	0.98	103	.	.
CCCC(=O)NC(=S)Nc1cccc(NC(=O)c2ccccc2)c1	-3	.	i	1	110	.	.
Cc1ccsc1-c1nc(CN2C[C@@H](C)O[C@@H](C)C2)c(C)o1	-5	.	i	0.96	110	.	.
Cc1cc(C)c2c(=O)[nH]c(SCC(=O)NCCc3ccccc3)nc2n1	2	-1.2	i	0.82	103	-469	35
COc1ccc(CC(=O)NCCC2=CCCCC2)cc1	3	.	i	1.1	106	35	78
CC1Cc2ccccc2N1CC(=O)NC(=O)NC1CCCC1 (centres undefined)	-1	.	i	1	110	.	.
COc1ccc(CCN(C)C(=O)N2CCOCC2)cc1OC	-9	-0.5	i	1	110	0	101
CCOC(=O)Nc1ccc([N+](=O)[O-])cc1C	-2	-0.7	i	0.91	103	.	.
O=Cc1c(Sc2ccccc2)nc2ccccn2c1=O	3	1.2	i	0.75	98	0	76
CCn1nnc(-c2ccccc2NC(=O)C(F)(F)F)n1	-2	-3.2	i	0.87	103	3	91
COc1ccc(C(C)=O)cc1COC(=O)c1ccc(S(=O)(=O)N2CCOCC2)cc1	-14	-1.7	i	1	105	17	143

RGS16-Gao: entries above that show a hit.
Compound | PKD1 inh | GALR2 agonist | HSV augment primary fold | RGS16-Gao
Cc1[nH]n(-c2ccccc2)c(=S)c1C=Nc1cccc([N+](=O)[O-])c1 | 0 | -1.1 | 1 | 19*

Going on with the list.
SMILES	PKD1 inh	GALR2 agonist	HSV augment	HSV augment primary fold	RGS16-Gao	INS promoter inh	INS promoter inh cell count
O=C(CSc1nnnn1C1CCCCC1)NNC(=O)c1ccco1	-4	.	i	1	96	.	.
O=C1c2ccccc2NC(c2ccc(-c3cccc(Cl)c3)o2)N1O (centres undefined)	-1	-4.9	i	0.88	94	18	112
COCC(C)n1c(C)cc(C(=O)COC(=O)CCc2nc3ccccc3c(=O)[nH]2)c1C (centres undefined)	2	.	i	0.96	100	.	.
O=C(NC1CCCCCC1)c1cc(S(=O)(=O)N2CCC3(CC2)OCCO3)ccc1F	-10	-2.4	i	1	103	-11	96
Cc1[nH]n(-c2ncc(-c3ccccc3)s2)c(=O)c1C(c1ccc(Br)cc1)C(C#N)C#N (centres undefined)	0	-0.5	i	0.87	77	17	125
O=C(CCNS(=O)(=O)c1cccc2nsnc12)NC1CCN(Cc2ccccc2)CC1	-7	-2.2	i	1.2	100	-52	110
c1cc2c(cn1)cnc1cscc12	-1	1.1	i	0.9	101	-14	77
Cc1ccc(OCC(=O)N2CCN(C(=O)c3ccncc3)CC2)cc1	-10	.	i	0.91	103	.	.
Cc1cccc(C(=O)Nc2cc(=O)n(C)c(=O)n2C)c1	-11	-0.4	i	0.88	104	.	.
CCOC(=O)C1CCCN(Cc2cc(=O)oc3cc(C)ccc23)C1 (centres undefined)	-5	.	i	0.84	92	.	.
Cc1cc(C(=O)Nc2cc(C(C)(C)C)on2)c(C)o1	.	.	i	0.89	102	.	.
CCOC(=O)c1c(-c2cccs2)csc1NC(=O)CNCCN1CCOCC1	-4	-0.4	i	0.81	136	-26	63
O=C(Nc1nnc(-c2ccccc2F)s1)Nc1ccccc1F	-4	.	i	0.81	107	.	.
Cc1cc(C)c2nc(SCC(=O)Nc3ccc(S(=O)(=O)N4CCCC4)cc3)c(C)cc2c1	-1	-2.0	i	1	104	-7	121
C[C@@H]1NC(=O)/C(=C\c2ccccc2Cl)NC1=O	.	.	i	1.1	99	.	.
CC(=O)NCCN1C(=O)C2C3c4ccccc4C(c4ccccc43)C2C1=O (centres undefined)	-6	-2.0	i	1	107	-77	73
COc1cc(NC(=O)c2ccccc2-c2ccccc2)cc(OC)c1	-20	-0.9	i	0.95	97	.	.
CCOC(=O)c1ccc(-c2c(C(=O)OCC)oc3cc(O)c(CC)cc3c2=O)o1	-5	-1.0	i	0.98	98	8	178
CCOC(=O)c1[nH]c2cc(OC)c(OC)cc2c1NC(=O)c1ccc2c(c1)OCO2	-8	0.1	i	0.88	87	.	.
O=C(/C=C/c1ccco1)Nc1sc2c(c1C(=O)O)CCC2	-5	-1.0	i	0.83	96	-7	51
COc1ccccc1Nc1nc(N)nc(CSc2nnc(C)s2)n1	-7	-1.1	i	0.98	102	-31	139
CN1CCCN(C(=O)/C=C/c2ccc(Cl)cc2Cl)CC1	-6	.	i	0.99	93	.	.
O=C(O)c1cc(-c2cc3ccccc3o2)nn1-c1ccccc1	2	.	i	1.2	95	.	.
COc1cc2ccccc2cc1-c1nnc(COc2ccccc2)o1	-17	-2.7	i	0.98	102	.	.
CCCCc1c(C)nc2ccc(Br)cc2c1SCCC#N	-1	-0.4	i	0.86	111	.	.
O=C(Nc1ccn(Cc2ccccc2)n1)c1cccc(F)c1	-2	.	i	0.95	111	-30	65
Cc1sc(C(C2C(=O)CC(C)(C)CC2=O)C2C(=O)CC(C)(C)CC2=O)cc1[N+](=O)[O-]	3	.	i	0.98	98	.	.
O=C(NCc1nc2ccccc2[nH]1)C1=C[C@@H](c2ccc(Br)cc2)C[C@@H](OCc2ccc(CO)cc2)O1	-6	.	i	0.86	114	.	.
Cc1ccc(S(=O)(=O)C2(C(=O)O)CCCC2)cc1C	2	-1.1	i	0.98	105	.	.
COC(=O)N/N=C\c1ccc(-c2cc(Cl)c(Cl)cc2Cl)o1	-3	-0.8	i	0.65	109	14	119

Some of these compounds in order of SMILES length, smallest number first.
SMILES	PKD1 inh	GALR2 agonist	HSV augment	HSV augment primary fold	RGS16-Gao	INS promoter inh	INS promoter inh cell count
CCCCc1c(C)nc2ccc(Br)cc2c1SCCC#N	-1	-0.4	i	0.86	111	.	.
O=C(Nc1ccn(Cc2ccccc2)n1)c1cccc(F)c1	-2	.	i	0.95	111	-30	65
COc1ccccc1Nc1nc(N)nc(CSc2nnc(C)s2)n1	-7	-1.1	i	0.98	102	-31	139
COc1cc(NC(=O)c2ccccc2-c2ccccc2)cc(OC)c1	-20	-0.9	i	0.95	97	.	.
COC(=O)N/N=C\c1ccc(-c2cc(Cl)c(Cl)cc2Cl)o1	-3	-0.8	i	0.65	109	14	119
Cc1sc(C(C2C(=O)CC(C)(C)CC2=O)C2C(=O)CC(C)(C)CC2=O)cc1[N+](=O)[O-]	3	.	i	0.98	98	.	.
